# Bioassay records deposited in PubChem BioAssay by several laboratories.
# Yeast UUG start – alters start codon recognition fidelity in yeast; activity score, % at 18.7 µM; S. cerevisiae UUG-firefly luciferase reporter, luminescence/redox ratio; 0.13% of 350,000 active; AID 602363;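 active means replicate mean at a twofold rise or more, about +100% in these data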;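 further: firefly luciferase made from a UUG start codon reports start codon fidelity; reporter light over untreated wells divided by growth signal over untreated wells; some hits fall short of that in this replicate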
# HIV Env fusion – blocks HIV Env-driven cell-cell fusion | 1.1% of 360,000 active | HeLa-JRFL Env/CEM21 cell fusion, luciferase | inhibition, % at 12.3 µM;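 active means mean replicate inhibition score of at least 50 and every replicate individually at or above 50; inconclusive means only one of the two criteria met; inactive means mean below 50 and not all replicates reaching 50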;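 further: 0% = plate neutral controls and 100% = maraviroc near 300 nM; one replicate is shown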
# Rce1 inh – inhibitors of yeast Ras-converting enzyme | Q03530 | yeast membranes, quenched prenylated peptide cleavage fluorescence | calls only | 0.27% of 290,000 active | AID 2563;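 active means fall in fluorescence gain of 50% or more versus controls, with final raw signal at or below 3038400; inconclusive means same 50% fall but final raw signal above 3038400; inactive means fall in fluorescence gain under 50%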;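 further: plate controls were neutral control wells for no effect and wells lacking membranes for full effect; tested at 10 µM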
# Target sequence (Q03530 whole entry, looked up): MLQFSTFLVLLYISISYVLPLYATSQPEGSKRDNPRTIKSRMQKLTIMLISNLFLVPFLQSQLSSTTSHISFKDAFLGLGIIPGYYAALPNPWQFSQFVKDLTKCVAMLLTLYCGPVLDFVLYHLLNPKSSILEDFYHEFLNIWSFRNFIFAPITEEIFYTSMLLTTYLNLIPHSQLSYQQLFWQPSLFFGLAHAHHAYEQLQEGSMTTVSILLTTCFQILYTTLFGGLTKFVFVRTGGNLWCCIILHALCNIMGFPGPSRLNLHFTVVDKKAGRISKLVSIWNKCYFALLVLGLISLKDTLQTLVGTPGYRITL
# MT1-MMP act inh – blocks activation of human MT1-MMP. P50281. HT1080 RFP-PRO-GFP cells, GFP/RFP ratio fluorescence, overnight; percent of plate control window, DMSO zero. GFP/RFP ratio change, % at 20 µM. 0.061% of 360,000 active;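 active means GFP/RFP ratio change of at least 30% with cell ATP level not reduced by more than half and red fluorescence within 50% of control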; further: strong numbers were not always called active
#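 Assay system – RFP-PRO-GFP reporter HT1080 cells · Compound dosing – single dose of 20 µM compound, 1% DMSO final · Incubation – overnight compound exposure at 37 °C · Measure – GFP/RFP fluorescence ratio · Benchmarks – DMSO wells and RFP-L50D-GFP cells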
# CSC inhib – blocks cancer stem cells. cancer stem cell-like cells viability, luminescence. AID 2717. 1.1% of 300,000 active. inhibition, % at 7.5 µM;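 active means mean at 75% or more and at least half the replicates too; inconclusive means mean and replicates disagree; tested in HMLE shEcad cells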;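 further: 0% = median of negative and 100% = median of positive control wells; the first replicate is given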
# eIF4H FP inh – inhibitors of RNA binding by human eIF4H; 0.94% of 290,000 active; eIF4H fluorescence polarization binding assay; inhibition, % at 35 µM;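 active means 50% or more with normal probe brightness, or confirmed in later tests; inconclusive means above 50% with abnormal brightness, or retests that disagree; inactive means below 50% or failed in later tests; about a fifth of its hits are not listed in these tables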;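 further: calls also rest on retests at 20 µM and on dose response follow-up; 0% = protein and probe with vehicle and 100% = probe without protein; strong numbers were not always called active; many hits fall short of the cut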
# PABP FP inh – blocks human PABP binding to poly(A) RNA | P11940 | fluorescence polarization | inhibition, % at 35 µM | 1% of 290,000 active;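 active means 50% or more with normal probe brightness, or confirmed in later tests; inconclusive means above 50% with abnormal brightness, or retests that disagree; inactive means below 50% or failed in later tests; about a fifth of its hits are not listed in these tables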;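 further: calls also rest on retests at 20 µM and on dose response follow-up; controls were probe without protein and protein plus probe with vehicle; some compounds called inactive have numbers as strong as hits; many hits fall short of the cut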
# eIF4H FP inh retest – second read-out of eIF4H FP inh, no call of its own (marks repeat the call); inhibition, %; compound at 20 µM; confirmation average;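 mean of two retest wells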
# PABP FP inh retest – recorded beside PABP FP inh, whose call it bears; inhibition, %; compound at 20 µM; confirmation repeats;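 mean of two retest wells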
# MT1-MMP act inh RFP – recorded beside MT1-MMP act inh, whose call it bears; RFP signal change, %; measured here: RFP expression control read;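 0 = vehicle wells; hits needed this value within 50% of zero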
# An asterisk follows results filed as active; i = inactive; u = inconclusive; x = not tested or not shown. Not all compounds are listed. The share of hits here may be higher or lower than overall.
SMILES,Yeast UUG start,HIV Env fusion,Rce1 inh,MT1-MMP act inh,MT1-MMP act inh RFP,CSC inhib,eIF4H FP inh,PABP FP inh,others
Cc1ccc(S(=O)(=O)N2CCOCC2)cc1NC(=O)COC(=O)CNC(=O)c1ccccc1,-9,x,i,-1,2,-12,70,8,eIF4H FP inh retest=0;PABP FP inh retest=6
COc1ccc(CN2C(=O)C(CC(=O)NCC3CCCCC3)CC(C(=O)N(C(C)C)C(C)C)=C2C)cc1 (centres undefined),5,9,x,3,-2,x,x,x,
COc1ccc(NC(=O)COc2cccc3c2OC(C)(C)C3)c(OC)c1,1,3,x,-2,-6,x,x,x,
CC(C)C(=O)Nc1nnn(C)n1,-18,-25,i,2,0,-2,0,5,
COc1ccccc1NC(=O)COC(=O)Cc1c[nH]c2ccccc12,-12,11,i,-1,6,-2,-3,-4,
O=c1oc2cc(O)ccc2s1,-9,-82,i,3,7,-6,x,x,
CCOC(=O)C1ON2CCCCC2C1(O)C(F)(F)F (centres undefined),x,-6,i,3,4,9,6,-5,
O=C(Nc1ccccc1N1CCCCC1)c1ccc(F)cc1,0,x,i,-8,-3,0,-1,-6,
O=[N+]([O-])c1ccccc1S(=O)(=O)N1CCCC(C(F)(F)F)C1 (centres undefined),-1,14,i,3,2,-12,3,3,
Cc1ccccc1-n1c(Cn2c(=O)sc3ccccc32)nnc1SCC(=O)Nc1nccs1,1,4,x,5,10,-1,-5,-14,
O=C(CCNC(=O)c1ccccc1Cl)NN=Cc1ccco1,-18,-2,x,-1,1,-8,x,x,
Cc1cccc(NC(=O)c2cc(S(=O)(=O)c3ccccc3)ccc2Cl)c1,3,x,i,1,-8,4,-10,4,
CCc1nn(CCCC(=O)NCc2ccccc2Br)c(=O)c2cc3occc3n12,-15,7,i,-4,-5,-7,7,14,
COc1ccc(NC(=O)CCN2C(=O)c3ccccc3C2=O)cc1,-11,4,i,-1,-1,6,7,-8,
COc1cc(-c2nc3cnccn3c2Nc2c(C)cccc2C)ccc1O,-8,x,i,1,5,x,1,-7,
O[C@@H]1[C@@H](O)C=C2CCN3Cc4cc5c(cc4[C@H]1C23)OCO5 (some centres undefined),-11,x,x,-38,-40,6,x,x,
COCCn1c(SCC#N)nnc1-c1ccc([N+](=O)[O-])cc1,x,12,i,0,2,-8,1,9,
Cc1onc(-c2ccccc2)c1C(=O)NCc1ccco1,-12,x,i,0,5,2,-1,0,
c1ccc(Cn2nnnc2C(c2cccs2)N2CCCCCC2)cc1 (centres undefined),-3,u,i,-14,-10,17,-9,-5,
CC(=O)c1cccc(S(=O)(=O)NCC2CCCCC2)c1,6,-28,i,3,-2,25,-8,-18,
COc1ccc(CCCC(=O)N/N=C\c2cccs2)cc1,x,-5,i,-1,-2,2,9,5,
Cc1cccc(OCC(=O)Nc2ccc(NC(=O)c3ccccc3)cc2)c1,-13,-37,i,3,7,-10,-10,-7,
CN1C(=O)CC(NNC(=O)c2ccc(Cl)cc2)C1=O (centres undefined),-12,-19,i,1,0,1,-9,2,
Cc1oc(C(C)(C)C)cc1C(=O)Nc1ccc(N2CCOCC2)cc1,-9,-5,i,4,-4,12,-12,-12,
Cc1ccc(N2CCN(CC(O)COc3ccc([N+](=O)[O-])cc3)CC2)cc1 (centres undefined),5,-20,i,-3,0,-5,-11,-7,
N#Cc1c(NC(=O)c2ccc([N+](=O)[O-])o2)sc2c1CCC2,-7,-49,i,-7,-20,25,29,12,
O=C(Nc1ccc(F)cc1)c1oc2ccccc2c1NC(=O)C1CCCC1,x,x,i,1,-5,1,-1,0,
O=C(NNC(=O)c1ccccc1-n1cccc1)c1ccccc1,-8,x,i,4,2,-8,5,-4,
c1ccc2c(c1)OCC(CNc1ncnc3sccc13)O2 (centres undefined),4,57*,i,-5,-27,8,-4,-8,
CC(C)(C)OC(=O)CNC(=O)c1nc[nH]c1C(=O)N1CCc2ccccc2C1,-23,16,i,-1,-1,-7,102,3,eIF4H FP inh retest=3;PABP FP inh retest=12
COc1ccc(Cl)cc1NC(=O)c1[nH]c(C)c(C(C)=O)c1C,-28,13,i,-3,1,-7,-3,8,
CCSc1ncc(/C=N/Nc2ccc(F)cc2)n1C,-15,x,i,-4,3,35,2,6,
CN(C)S(=O)(=O)c1cccc(C(=O)OCC(=O)N2c3ccccc3NC(=O)C2(C)C)c1,-1,-66,i,5,2,x,-1,8,
N#CCOC(=O)C1CCN(S(=O)(=O)c2ccc3c(c2)OCCO3)CC1,x,-66,i,10,7,-4,x,x,
CCCCNC(=O)c1onc(CS(=O)(=O)c2ccccn2)c1C(=O)NCCCC,4,7,x,0,0,-7,x,x,
CCCC(=O)Nc1ccc2oc(-c3ccc(OC)c(Br)c3)nc2c1,-16,-86,x,1,-4,16,-8,1,
COc1ccc(NC2=C(Cl)C(=O)N(CCc3ccccc3)C2=O)cc1,x,6,i,8,4,-5,-1,-23,
Cc1ccc2nc3c(cc(C(=O)NCCN4CCOCC4)c(=N)n3CCCN3CCOCC3)c(=O)n2c1,-21,x,i,-1,2,-5,2,30,
S=C(NCc1cccnc1)Nc1cc(Cl)cc(Cl)c1,x,-12,x,4,-3,5,-11,3,
CCOC(=O)N1CCN(C(=O)CN(c2cccc(OC)c2)S(C)(=O)=O)CC1,-1,-5,i,-1,-4,5,-5,-8,
O=C(CCSCCc1ccccn1)Nc1ccccn1,-2,x,i,-1,1,-4,-2,7,
COc1cc(C(=O)Nc2ccc(-n3cnnn3)c(C)c2)cc(OC)c1OC,1,x,i,15,-8,-11,-5,2,
COC(=O)C1=C(C)N(C)C(C)=C(C(=O)OC)C1c1ccc(F)c(Br)c1,-12,x,i,2,1,16,4,10,
CCCN(CCC)C(=O)c1ccccc1C(=O)N(CCC)CCC,-23,-47,i,1,2,0,-5,6,
Cc1cccc(C)c1NC(=O)CSc1nc(C2CC2)nc2ccccc12,4,-4,x,-4,-6,-7,0,-14,
O=C1OCc2ccc(NC(=O)c3c(F)cccc3Cl)cc21,-11,1,i,0,4,5,-1,5,
CCOC(=O)c1ccc(NC(=O)Nc2ccc3c4c(cccc24)C(=O)N3CC)cc1,-8,-18,i,-35,3,20,17,-21,
COC(=O)c1cc(NC(=O)c2ccccc2F)cc(C(=O)OC)c1,x,13,i,-2,-2,-3,41,5,
COc1ccc(S(=O)(=O)N2CCCCCC2)cc1C(=O)N(C)Cc1cccs1,-8,0,i,-1,-1,-7,x,x,
Cc1ccnc2ccc(-c3nc4ccccc4o3)cc12,7,-143,x,-11,-13,30,-9,-9,
Cc1occc1C(=O)N/N=C/c1ccccn1,x,8,i,2,10,-3,2,-6,
CC(=O)N1CCc2cc(S(=O)(=O)C(C)CC(=O)NCc3ccc(C)o3)ccc21 (centres undefined),-25,17,i,-6,8,21,-17,-3,
COc1cc(C)c(/C=C/C(C)=C/C=C/C(C)=C/C(=O)O)c(C)c1C,-16,x,i,1,2,33,x,x,
COc1ccc(NC(=O)Cn2cc(C(C)=O)c3ccccc32)cc1,3,39,i,14,-25,0,2,6,
C[C@@]12C(=O)N(Cc3ccc(F)cc3)CC(=O)N1[C@H]1c3cc(Cl)ccc3OC[C@@H]1[C@@H]2c1ccccc1,-4,77*,x,4,0,26,x,x,
O=C(Cc1ccsc1)NCc1ccccc1F,14,4,i,0,1,-9,0,1,
O=C(NCc1ccco1)c1cc(C(=O)C2CC2)c[nH]1,-15,-40,i,4,3,-3,-11,0,
O=C(O)C(NS(=O)(=O)c1ccc(F)cc1)c1ccccc1 (centres undefined),x,-5,i,-1,0,-11,-7,5,
COc1ccccc1CC(=O)N1CCN(c2cccc(Cl)c2)CC1,-8,33,i,1,-8,-8,6,5,
COc1ccc(C(=O)NCCNC(=O)c2cc(OCC(F)(F)F)ccc2OCC(F)(F)F)cc1,-6,x,i,-2,-2,7,14,-5,
# Additional compounds
SMILES,Yeast UUG start,HIV Env fusion,Rce1 inh,MT1-MMP act inh,MT1-MMP act inh RFP,CSC inhib,eIF4H FP inh,PABP FP inh,others
CSC1=NC(C)N2C(SC)=NC(C)N12 (centres undefined),x,-12,i,-1,1,-21,10,8,
CC(=O)Nc1cc(C(=O)N2CCOCC2)ccc1S(=O)(=O)c1ccc(C)cc1,x,x,i,3,4,2,-1,1,
CC(=O)N(CCP(=O)(c1ccccc1)c1ccccc1)Cc1ccco1,0,x,i,4,4,-7,4,6,
CC(NC(=O)[C@@H](C)NC(=O)[C@@H]1Cc2ccccc2CN1C(=O)OC(C)(C)C)c1ccccc1 (some centres undefined),22,-1,i,-4,3,2,-14,-4,
CC(C)c1nnc(SCC(=O)NC2CCCC2)n1C,-19,-9,i,1,0,2,-5,5,
Cc1ccc(CNC(=O)c2ccc(Cn3cc(-c4ccc(C)cc4)nc3-c3ccncc3)cc2)cc1,-16,-81,i,7,-5,2,-30,-9,
CC(=O)c1sc(-c2cccc(Cl)c2)nc1C,-9,-40,i,-3,1,-4,6,1,
COc1cc(S(=O)(=O)NC2CCCCC2)c(C)cc1C,x,6,i,4,-2,x,-8,34,
CCS(=O)(=O)N1CCC(C(=O)Nc2cc(C)ccc2O)CC1,3,-54,i,-1,2,-6,-11,1,
N#Cc1ccc(C(=O)Nc2cccc(NC(=O)c3ccco3)c2)c(F)c1,-7,-2,i,2,-1,11,2,-8,

# Sorted by molar mass (ascending): some entries from above
SMILES,Yeast UUG start,HIV Env fusion,Rce1 inh,MT1-MMP act inh,MT1-MMP act inh RFP,CSC inhib,eIF4H FP inh,PABP FP inh,others
CSC1=NC(C)N2C(SC)=NC(C)N12 (centres undefined),x,-12,i,-1,1,-21,10,8,
O=C(Cc1ccsc1)NCc1ccccc1F,14,4,i,0,1,-9,0,1,
CC(=O)c1sc(-c2cccc(Cl)c2)nc1C,-9,-40,i,-3,1,-4,6,1,
O=C(NCc1ccco1)c1cc(C(=O)C2CC2)c[nH]1,-15,-40,i,4,3,-3,-11,0,
CC(C)c1nnc(SCC(=O)NC2CCCC2)n1C,-19,-9,i,1,0,2,-5,5,
COc1cc(S(=O)(=O)NC2CCCCC2)c(C)cc1C,x,6,i,4,-2,x,-8,34,
O=C(O)C(NS(=O)(=O)c1ccc(F)cc1)c1ccccc1 (centres undefined),x,-5,i,-1,0,-11,-7,5,
N#Cc1ccc(C(=O)Nc2cccc(NC(=O)c3ccco3)c2)c(F)c1,-7,-2,i,2,-1,11,2,-8,
CC(=O)N(CCP(=O)(c1ccccc1)c1ccccc1)Cc1ccco1,0,x,i,4,4,-7,4,6,
CC(=O)Nc1cc(C(=O)N2CCOCC2)ccc1S(=O)(=O)c1ccc(C)cc1,x,x,i,3,4,2,-1,1,
CC(NC(=O)[C@@H](C)NC(=O)[C@@H]1Cc2ccccc2CN1C(=O)OC(C)(C)C)c1ccccc1 (some centres undefined),22,-1,i,-4,3,2,-14,-4,
Cc1ccc(CNC(=O)c2ccc(Cn3cc(-c4ccc(C)cc4)nc3-c3ccncc3)cc2)cc1,-16,-81,i,7,-5,2,-30,-9,
COc1ccc(C(=O)NCCNC(=O)c2cc(OCC(F)(F)F)ccc2OCC(F)(F)F)cc1,-6,x,i,-2,-2,7,14,-5,
